Source: PubChem
Mtb H37Rv = Mycobacterium tuberculosis H37Rv growth inhibition, cell based, confirmatory dose response (AID 1949); most inactive calls were filed without a number and no value below 0 was filed; M. tuberculosis H37Rv growth inhibition; 1.6% of 100,000 active; inhibition, % at 10 µg/mL, or IC50 in µg/mL where a hit was titrated;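 active means confirmed in a dose series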;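 further: bacteria grown 7 days with compound before Alamar blue readout; 0% = untreated bacteria and 100% = reference antibiotic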
Numbers without * were called inactive; i = inactive. These rows are one share of the data; the hit share may differ from the screen's.

SMILES	Mtb H37Rv
Nc1cc(=O)[nH]c(SCc2ccccc2F)n1	2%
CCN(CC)S(=O)(=O)c1ccc(N)cc1	2%
CN1C(=O)c2ccc(C(=O)Nc3cccnc3)cc2C1=O	i
N#Cc1nc(-c2ccccc2)oc1NCCN1CCCCC1	5%
CCCn1nnc(NC(=O)c2ccc(C(C)C)cc2)n1	i
O=c1c2cc(Br)ccc2nc(/C=C/c2ccc([N+](=O)[O-])o2)n1-c1ccccc1	3%
CCc1ccc(S(=O)(=O)Nc2ccc3oc4c(c3c2)CCCC4)cc1	i
CCC(C(=O)Nc1nnc(CC(C)(C)C)s1)c1ccccc1 (stereo not given)	i
CC(C)COc1ccc(C(=O)NCCC(=O)O)cc1	i
Cc1cc(Br)ccc1OCC(=O)O/N=C(\N)c1ccccc1Cl	i
Cc1cc2nc(/N=C(/N)NC(=O)c3ccccc3N)nc(C)c2cc1C	i
Cc1ccccc1CN(CC(=O)NC1CC1)S(=O)(=O)c1ccc(Cl)cc1	i
O=C(NC(c1ccccc1)c1ccccc1)N1CCN(CCO)CC1	i
Cc1cc(Cl)ccc1OCC(=O)O/N=C(\N)c1ccccn1	2%
O=C1NN(c2ccccc2)C(=O)/C1=C/c1ccc(OC(=O)c2cccs2)c(Cl)c1	6%
COc1cc([N+](=O)[O-])ccc1NC(=S)NCCn1cc(Br)cn1	i
CCOc1ccc(CC2SC(N)=NC2=O)cc1 (stereo not given)	i
O=C(NCc1ccccn1)c1ccc(CN2CCC(Cc3ccccc3)CC2)cc1	2%
CCNC(=O)c1c(NC(=O)COc2ccc([N+](=O)[O-])cc2)sc2c1CCCC2	i
O=C(CSc1nc(-c2cccs2)cc(C(F)(F)F)n1)N1CCSCC1	4%

The list goes on; the last seven above are carried over.
SMILES	Mtb H37Rv
Cc1cc(Cl)ccc1OCC(=O)O/N=C(\N)c1ccccn1	2%
O=C1NN(c2ccccc2)C(=O)/C1=C/c1ccc(OC(=O)c2cccs2)c(Cl)c1	6%
COc1cc([N+](=O)[O-])ccc1NC(=S)NCCn1cc(Br)cn1	i
CCOc1ccc(CC2SC(N)=NC2=O)cc1 (stereo not given)	i
O=C(NCc1ccccn1)c1ccc(CN2CCC(Cc3ccccc3)CC2)cc1	2%
CCNC(=O)c1c(NC(=O)COc2ccc([N+](=O)[O-])cc2)sc2c1CCCC2	i
O=C(CSc1nc(-c2cccs2)cc(C(F)(F)F)n1)N1CCSCC1	4%
Clc1ccccc1C1CC(c2cccc(Br)c2)n2ncnc2N1 (stereo not given)	5%
Fc1cccc(-c2nc(-c3cccs3)c(-c3cccs3)[nH]2)c1	4%
CCCCSc1nnc2c(n1)OC(c1ccc(Br)o1)Nc1ccccc1-2 (stereo not given)	i
O=S(=O)(Nc1cccc(F)c1)c1cccc(S(=O)(=O)c2ccc(Br)cc2)c1	i
CCOC(=O)c1ccc(NC(=O)Cn2nnc(-c3ccc(OC)cc3)n2)cc1	i
Cc1c(C(=O)N/C(N)=N/c2nc3ccccc3o2)cccc1[N+](=O)[O-]	14%
CC(C)(C)c1ccc(CSc2nnc(NC(=O)CCc3ccccc3)s2)cc1	i
O=Cc1ccc(-c2cc(Cl)ccc2Cl)[nH]1	i
Cc1ccc(OCC(=O)Oc2ccc(Cl)cc2)c(Br)c1	i
COC(C(=O)NCc1cccnc1)c1ccccc1 (stereo not given)	0%
CC(=O)Nc1cc(-c2nn(C)c(=O)c3ccccc23)ccc1N1CCCCC1	i
COc1ccc(Cl)cc1NC(=O)CSc1nnc(-c2ccc(Cl)cc2Cl)o1	i
O=C(Nc1ccccc1)N1CC=C(c2ccc(F)cc2)CC1	i
COc1ccc(CNc2oc(Cc3ccccc3)nc2C#N)cc1	i
CC(C)Oc1ccc(C(=O)NC2=NCCS2)cc1	i
C=CCOc1cccc(C(=O)NCCc2ccccc2)c1	5%
O=c1c2c(-c3ccccc3)csc2ncn1CCc1ccccc1	i
CN(C(=O)CSc1nnc(N)s1)c1ccccc1	i
Cc1cc(OC(=O)C(c2ccccc2)N2C(=O)C3C4C=CC(C5CC45)C3C2=O)ccc1Cl (stereo not given)	i
CN(c1ccccc1C(=O)N1CCN(Cc2ccc3c(c2)OCO3)CC1)S(C)(=O)=O	i
CCn1nnc(NC(=O)COc2cc(C)ccc2C(C)C)n1	2%
O=C(CN1CCOCC1)Nc1ncc(Cc2cccc3ccccc23)s1	33%
O=C(Nc1ccc(Cl)cc1)NC1CC2CCC1C2 (stereo not given)	0.72µg/mL*
COc1ccc(Cl)cc1NC(=O)N1CCCCCC1	i
CCOC(=O)c1ccc(NC(=S)N2CCN(c3ccc(Cl)c(Cl)c3)CC2)cc1	i
COc1ccc(CCCc2nnc(SCC(=O)Nc3c(C)cc(I)cc3C)n2C)cc1	i
Cc1c(Cl)cccc1NC(=S)NC(=O)c1cccc(Br)c1	0%
O=C(CN1C(=O)c2cccc3cccc1c23)NCc1ccncc1	i
C=CCn1c(CCC(=O)O)ccc1-c1ccccc1	i
COc1ccc(/C(N)=N/OC(=O)c2cccs2)cc1OC	i
O=C(Nc1ccc2c3c(cccc13)CC2)c1ncn[nH]1	i
O=C(Nc1nccs1)c1ccc(CSc2ccccc2)o1	3.1µg/mL*
Cc1cc(C)c(C(=O)Nc2c(C)n(C)n(-c3ccccc3)c2=O)c(C)c1	i
Cc1cc(=O)oc2cc(NC(=S)NNC(=O)C(C)Oc3ccc(-c4ccccc4)cc3)ccc12 (stereo not given)	i
CN(C)S(=O)(=O)c1ccc2nc(NC(=O)c3cccnc3)sc2c1	i
COc1cc(Cl)c(S(=O)(=O)N2CCN(c3ccccc3OC)CC2)cc1Cl	3%
CCC(C)c1ccc(OCC(=O)Nc2ccc(OC)cc2OC)cc1 (stereo not given)	5%
O=C(Nc1ccc(Br)cc1Cl)C(Cc1ccccc1)N1C(=O)C2C3C=CC(C3)C2C1=O (stereo not given)	i
Cc1ccc(C(=O)Nc2ccc([N+](=O)[O-])cc2)cc1Br	1%
COc1ccc(CSc2nnc(-c3ccccn3)n2N)cc1	i

The closing 4 compounds of the part before come first, to join the parts.
SMILES	Mtb H37Rv
CCC(C)c1ccc(OCC(=O)Nc2ccc(OC)cc2OC)cc1 (stereo not given)	5%
O=C(Nc1ccc(Br)cc1Cl)C(Cc1ccccc1)N1C(=O)C2C3C=CC(C3)C2C1=O (stereo not given)	i
Cc1ccc(C(=O)Nc2ccc([N+](=O)[O-])cc2)cc1Br	1%
COc1ccc(CSc2nnc(-c3ccccn3)n2N)cc1	i
Cc1c(N(C)C(=O)c2ccccc2Cl)c(=O)n(-c2ccccc2)n1C	i
O=C(COc1ccc(Cl)cc1Br)N1CCCc2ccccc21	12%
COc1ccc(Cl)cc1N/C(N)=N/c1nc(CSc2ccc(Cl)cc2)cc(=O)[nH]1	i
CC(=O)c1ccc(Nc2nc(-c3ccccc3)nc3ccccc23)cc1	i
Cc1ccc(S(=O)(=O)c2cc3c(=O)n4ccccc4nc3n(Cc3cccnc3)c2=N)cc1	i
COc1ccc(C(=O)NC(=S)Nc2cc(C(=O)O)ccc2OC)cc1Br	7%
CCOc1ccc(C2NC(=S)NC(C)=C2C(=O)Nc2cc(C)cc(C)c2)cc1 (stereo not given)	i
CCOc1ccccc1OCC(=O)Nc1ccc(Cl)cc1C(=O)c1ccccc1	2%
Cc1ccc(S(=O)(=O)CC(=O)c2cc(C)ccc2C)cc1	i
CCCNC(=O)Nc1ccc(I)cn1	5%
CCc1[nH]nc2c1C(c1ccsc1)C(C#N)=C(N)O2 (stereo not given)	i
Cc1cc(OCC(=O)N2CCC(C)CC2)cc(C)c1Br	i
N#Cc1ccc(C(=O)Nc2cccc(NC(=O)c3ccccc3Cl)c2)c(F)c1	1%
Cc1cc(C)n(CC(O)CN2C(=O)NC(C)(C)C2=O)n1 (stereo not given)	i
O=C(O)CCc1ccc(-c2ccc(Cl)cc2)n1CCC(=O)O	i
COC(=O)c1sc(NC(=S)Nc2ccc(N(C)C(C)=O)cc2)c(C(=O)OC)c1C	i
CCC(=O)Nc1ccc2oc(-c3cc(Cl)ccc3Cl)nc2c1	5%
CSc1ccc(S(=O)(=O)N(CC(=O)Nc2ccc(F)cc2)c2ccc(C)cc2)cc1	i
O=[N+]([O-])c1ccc(N2CCN(S(=O)(=O)c3ccc4ccccc4c3)CC2)cc1NC1CC1	i
CC(C)c1ccc(N(CC(=O)NC2CC3CCC2C3)S(C)(=O)=O)cc1 (stereo not given)	2%
CCOC(=O)C1=C(C)N=C2SCCC(=O)N2C1c1cccc(OC(C)=O)c1 (stereo not given)	i
CCN(CC)C(=S)NC(=O)Cc1ccccc1	1%
O=C(O)C1CCCCC1C(=O)Nc1ccc(F)c(Cl)c1 (stereo not given)	i
COc1cc(OC)cc(OCC(O)Cn2cnc(-c3ccccc3)c2)c1 (stereo not given)	i
COc1ccc(CCNC(=S)NCc2ccccn2)cc1OC	7%
COc1ccc(C2C(C(=O)Nc3cc(C)ccn3)=C(C)NC3=C2C(=O)CC(C)(C)C3)c(OC)c1 (stereo not given)	i
CCCCc1c(C)nc(SCC(=O)O)[nH]c1=O	i
Cc1ccc(S(=O)(=O)n2nc(-c3ccco3)nc2N)cc1	i
CC(=O)c1ccc(NC(=O)C2CC(=O)N(C(C)C)C2)cc1 (stereo not given)	i
CCN(CC(=O)N1CCOCC1)S(=O)(=O)c1ccc(Cl)cc1	i
COc1ccc(CCCC(=O)NC2CCCCC2C)cc1C (stereo not given)	i
CC(C)(C)c1ccc(-c2noc(-c3cccnc3)n2)cc1	4.3µg/mL*
COc1ccc(S(=O)(=O)N(C)CC(=O)Nc2cc(Cl)cc(Cl)c2)cc1OC	i
CCN(CC)S(=O)(=O)c1cc(Cl)ccc1OC	i
Cc1c(NC(=O)CN(c2ccc(F)cc2)S(=O)(=O)c2ccc3c(c2)OCCO3)c(=O)n(-c2ccccc2)n1C	i
N#CCc1ccc(NC(=O)CN(c2ccc(I)cc2)S(=O)(=O)c2ccccc2)cc1	i
O=S(=O)(c1cccc(F)c1)N1CCN(Cc2ccccc2)CC1	3%
Cc1cc(C)cc(OCC(=O)Nc2nc(-c3ccc(Cl)cc3)cs2)c1	i
COc1ccc(NC(=S)N2CCN(C/C=C/c3ccccc3)CC2)cc1OC	i
COC(=O)C1CCN(S(=O)(=O)c2ccc(C)cc2)CC1	i
CCOC(=O)C(Oc1ccc2c(-c3ccccc3)cc(=O)oc2c1)c1ccccc1 (stereo not given)	26%
Cc1ccc(NC(=O)COc2ccccc2Br)cc1Cl	i
COc1ccc(C2C(C(=O)Nc3cccc(C(F)(F)F)c3)=C(C)NC3=C2C(=O)CC(C)(C)C3)cc1 (stereo not given)	i
COc1ccc(-c2cc(C(F)(F)F)n3ncc(C(=O)NCc4ccccn4)c3n2)cc1OC	i
O=C(Cc1ccccc1)NCc1ccc(Cl)c(Cl)c1	i
O=C(Nc1cccnc1)C1CCCN1S(=O)(=O)c1ccc(Cl)c(Cl)c1 (stereo not given)	i
CSc1ccccc1NC(=O)CN(c1ccc(Oc2ccccc2)cc1)S(C)(=O)=O	5%
COc1ccc(C)cc1N(CC(=O)Nc1ccc(S(=O)(=O)N2CCCC2)cc1)S(C)(=O)=O	i
Cc1nc(Oc2ccc3c(c2)OCO3)c2cc(-c3ccccc3)sc2n1	i
CCN(CC)S(=O)(=O)c1ccc(OC)c(NC(=O)c2cccc(C)c2[N+](=O)[O-])c1	i
N#CC1(c2ccccc2)CCN(C2CC(=O)N(c3cccc(F)c3)C2=O)CC1 (stereo not given)	i
O=C(Nc1ccc(C(=O)OCc2ccc(Cl)cc2)cc1)c1ccccc1	i
CCOc1ccccc1NC(=O)c1nc2nc(C)cc(C(F)F)n2n1	i
COc1ccc(-c2cc3ccccc3oc2=O)cc1NC(=O)c1cccs1	i
O=C(NNC(=S)NCc1ccco1)C1CCN(Cc2ccc(F)cc2Cl)CC1	1%
COC(=O)c1ccc(-c2ccc(/C=C(\C#N)c3nc4ccccc4[nH]3)o2)cc1	i
CCn1c(CCNC(=O)c2cccs2)nnc1SCC(=O)NCCc1ccccc1	i
COc1ccc(Cl)c(S(=O)(=O)N2CCCC2)c1	i
CCCC(=O)N1CCN(c2ccc(NC(=O)c3ccc(-c4ccccc4)cc3)cc2Cl)CC1	i
O=C1CCC(=O)N1N1C(=O)c2ccccc2C1=O	i

Ordered by SMILES length (ascending): part of the list above.
SMILES	Mtb H37Rv
COC(C(=O)NCc1cccnc1)c1ccccc1 (stereo not given)	0%
CCCCc1c(C)nc(SCC(=O)O)[nH]c1=O	i
COc1ccc(CCNC(=S)NCc2ccccn2)cc1OC	7%
O=C(Nc1ccc2c3c(cccc13)CC2)c1ncn[nH]1	i
CCN(CC)S(=O)(=O)c1ccc(OC)c(NC(=O)c2cccc(C)c2[N+](=O)[O-])c1	i
Cc1c(NC(=O)CN(c2ccc(F)cc2)S(=O)(=O)c2ccc3c(c2)OCCO3)c(=O)n(-c2ccccc2)n1C	i

Remaining list, next part:
SMILES	Mtb H37Rv
C=CCc1cc(Cl)ccc1OCCN1CCC(C)CC1	i
CCOc1c(Cl)cc(C(=O)Nc2cccc(C(=O)O)c2)cc1Cl	i
C=CCn1c(SCC(=O)c2ccc(OC)cc2)nnc1C(C)NC(=O)c1ccc(Cl)cc1Cl (stereo not given)	0%
Cc1cc(C(=O)NCCCn2ccnc2)sc1-c1ccccc1	1%
Cc1cc(Br)ccc1OCC(=O)NCc1cccnc1	i
COc1ccc(NC(=O)C(=O)NC(C)c2ccccc2)c(OC)c1 (stereo not given)	i
CS(=O)(=O)NCCNc1ccc(C(F)(F)F)cc1[N+](=O)[O-]	i
COc1cc2c3c(c1)C1(C(=O)N3C(C)(C)C=C2C)C(C#N)=C(N)Oc2n[nH]c(C)c21 (stereo not given)	i
Cc1cccc(OCC(=O)Nc2ccc(NC(=O)c3ccccc3Cl)cc2)c1	i
COc1ccc(C2CC(c3cccs3)=NN2C(=S)Nc2ccccc2)cc1OC (stereo not given)	9%
CCOc1ccc(/C=C2\SC(=S)N(CC(=O)N3CCN(C)CC3)C2=O)cc1	i
O=C(Nc1ccc2c(c1)OCCO2)C(Cl)Cl	6.7µg/mL*
O=C(COc1ccc(-c2cnc3ccccc3n2)cc1)c1ccc(F)cc1	6%
Cc1ccc(N/C(=N\S(=O)(=O)c2ccccc2)c2ccccc2)cc1C	1%
COc1ccccc1OCC(=O)Nc1ccc(Oc2ccc(NC(=O)COc3ccccc3OC)cc2)cc1	i
